# Screens from PubChem BioAssay.
# ClpP mod: qHTS Assay for Activators of ClpP; 340,000 tested, 1.9% active; purified B. subtilis ClpP, FRET peptide cleavage, 20 min; Potency, µM (series often up to 57.5 µM), for inactives: at the highest dose activity change, negative = active; active = well fitted falling curve with a large enough effect; inconclusive = small, poorly fitted or top-dose-only effect; inactive = no such curve, though single readings can be large or run the other way; further: potency means the concentration at half of the fitted maximal effect; the source files actives as falling curves though it sought activators and does not explain the sign; nearly all actives have a fitted effect of over 65% in size; many hits overshoot -100%
# Target sequence (P80244 whole entry, looked up): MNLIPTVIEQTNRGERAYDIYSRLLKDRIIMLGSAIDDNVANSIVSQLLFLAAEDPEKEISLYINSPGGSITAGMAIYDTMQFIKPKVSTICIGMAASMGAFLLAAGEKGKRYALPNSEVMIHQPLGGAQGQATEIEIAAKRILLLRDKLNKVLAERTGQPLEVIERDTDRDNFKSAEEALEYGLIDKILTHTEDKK
#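 FRET quenching reversal measured ClpP activation: 10 microg/mL B. subtilis ClpP at pH 8 with the FRET-FV decapeptide, read at 430 nm after 320 nm excitation. The 20-min minus 0-min signal was scaled between DMSO/no-enzyme wells and ADEP (5.8 microM final).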
# Menin MLL FP FL: menin-MLL binding inhibition, fluorescein peptide | Fluorescence polarization, fluorescein-MLL peptide displacement from menin | 290,000 tested, under 10 active | FP activity change, % at 61.4 µM; inconclusive = falling polarisation curve, or a change in total fluorescence; inactive = total fluorescence flat and polarisation flat or rising; no compound was filed as active; the % refers to the polarisation; negative = inhibition;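 further: % of control where 0% means no effect; inhibitors lower the polarisation; unlabelled MLL peptide was the positive control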
# D2 PAM: human D2 receptor positive allosteric modulation; 360,000 tested, 0.23% active; P14416; AID 624464; DiscoveRx D2 beta-arrestin cells, luminescence, 90 min; 100% = 57 uM dopamine signal; potentiation, % (no concentration beside the values); active = potentiation of 50% or more; inconclusive = 30% to 50%; inactive = 30% or less;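 further: compound concentration not given in the record; tested on top of an EC20 dose of dopamine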
# Target sequence (P14416 whole entry, looked up): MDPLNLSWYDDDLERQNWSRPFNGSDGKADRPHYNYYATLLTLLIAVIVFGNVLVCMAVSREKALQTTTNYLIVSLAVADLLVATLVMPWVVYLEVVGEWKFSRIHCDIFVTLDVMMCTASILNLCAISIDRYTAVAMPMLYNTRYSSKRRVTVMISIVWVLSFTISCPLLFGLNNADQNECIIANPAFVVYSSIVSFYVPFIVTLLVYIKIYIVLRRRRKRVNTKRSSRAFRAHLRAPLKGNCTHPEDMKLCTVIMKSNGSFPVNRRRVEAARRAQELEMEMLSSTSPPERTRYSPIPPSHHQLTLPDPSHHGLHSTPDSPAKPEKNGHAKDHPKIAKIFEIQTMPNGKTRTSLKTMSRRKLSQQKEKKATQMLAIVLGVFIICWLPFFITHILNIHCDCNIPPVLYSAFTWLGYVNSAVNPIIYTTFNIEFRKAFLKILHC
#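 D2 cells co-treated with compound plus 50 nM dopamine (EC20) for 90 min at 37 deg C to detect potentiation. Beta-arrestin recruitment was read as enzyme-fragment luminescence after 1 h at ambient temperature. Full response was set by 57 uM dopamine.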
# TRPV1 PAM: human TRPV1 potentiation | potentiation, % at 8.33 µM | AID 540277 | TRPV1-expressing cells, Fluo-8 calcium influx, capsaicin EC20 potentiation; host cell line not named in the record; control for the full effect not named in the record | 320,000 tested, 0.02% active | Q8NER1; active means potentiation above 80%; inconclusive means 30% to 80%; inactive means below 30%; further: 0% is about no effect
#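 Cells expressing TRPV1 were dye-loaded with Fluo-8 and read kinetically: 10 s baseline, 3 min after compound (agonist portion), then 2 min after EC20 capsaicin (allosteric enhancer portion). Calcium-bound dye fluorescence at 480/520 nm.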
# gsp ag: activates gsp, the McCune-Albright syndrome mutation | gsp mutant cells, cAMP HTRF, 30 min; control for the full effect not named in the record | Potency, µM (doses to about 76.9 µM), without a hit: top-dose activation (cAMP increase), most hits filed as activators | 340,000 tested, 0.13% active | AID 624287; active = well fitted activation curve with a large enough effect; inconclusive = small, poorly fitted or top-dose-only effect, or another doubt; inactive = no such curve, though single readings can be large or run the other way; cell line not stated here;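 further: phosphodiesterase inhibitor Ro 20-1724 added with compounds to block cAMP breakdown; potency means the concentration at half of the fitted maximal effect; nearly all actives have a fitted effect of over 60% in size; about a fifth of the inactives were tested at one dose only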
#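 Cells stably selected in G418 were plated at 2000/well, grown 16-24 hr, then given compounds in DMSO with the PDE inhibitor […] (300 uM solution added) for 30 min at 37C; cAMP was read by HTRF.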
# gsp antagonist: gsp mutant antagonism; AID 624288; 340,000 tested, 0.4% active; Potency, µM (highest dose often 76.9 µM), without a hit: at the highest dose activity change, negative = inhibition, actives largely listed as inhibitors; gsp-mutant cells, cAMP HTRF, 30 min; control for the full effect not named in the record; active = falling curve of any shape with a large fitted effect; inconclusive = falling curve, mostly with a smaller effect; inactive = flat or rising curve; cell line not stated here;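 further: intracellular cAMP measured with PDE inhibitor Ro 20-1724 present during compound exposure; potency means the concentration at half of the fitted maximal effect; on the % scale 0 is the no-effect control and ±100 the full control effect; nearly all actives have a fitted effect of over 65% in size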
#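 Measurement of cellular cAMP by homogeneous time-resolved fluorescence following a 30 min compound exposure at 37C. The PDE inhibitor […] was present throughout; the assay buffer was DPBS with 0.05% BSA and 0.005% Tween 20.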
# Sfp inh: inhibitors of Bacillus subtilis Sfp phosphopantetheinyl transferase; Q9F4F7; AID 1490; 310,000 tested, 3.5% active; Potency, µM, for inactives: max response, negative = inhibition, usual class: inhibitors; Biochemical Sfp PPTase activity, qHTS; active means well fitted inhibition curve with a large enough effect; inconclusive means small, poorly fitted or top-dose-only effect, or another doubt; inactive means no such curve, though single readings can be large or run the other way;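 further: the enzyme is Sfp with the accession as filed and its product quenches rhodamine fluorescence; potency means the concentration at half of the fitted maximal effect; 0% = enzyme reaction without inhibitor and -100% = no enzyme wells; top concentration of the series not given in the record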
#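 Buffer: 50 mM Hepes-Na pH 7.6, 10 mM MgCl2, 0.01% Nonidet P-40, 0.01% BSA. Enzyme 15 nM, pre-exposed to compound 15 min; substrates then added and fluorescence change tracked over 30 min.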
# Numbers without * were called inactive; u = inconclusive; x = no result given; & = joins results of further samples; [ ] = another dose, or the depositor's remark.
SMILES,ClpP mod,Menin MLL FP FL,D2 PAM,TRPV1 PAM,gsp ag,gsp antagonist,Sfp inh
O=C(O)CCN1C(=O)c2ccc(Oc3ccc4c(c3)C(=O)N(CCC(=O)O)C4=O)cc2C1=O,-4.3%,8.9,3,-1,-22%,-5%,8%
CCN1C(=O)/C(=C\c2ccc(F)cc2)N=C1SCC(=O)NCc1ccco1,-0.5%,1.5,-23,-21,-4%,-5%,-13%
Cc1cccc(NC(=O)COc2ccccc2C)n1,-1.4%,-0.1,-3,-20,-20%,6%,5%
CCOc1ccc(N2C(=O)CC(Sc3ccccc3C(=O)O)C2=O)c([N+](=O)[O-])c1 (stereo not given),-0.2%,-7.9,1,-1,-15%,-1%,13µM*
CN(C)S(=O)(=O)n1cc(/C=C(\NC(=O)c2ccccc2)C(=O)N2CCOCC2)c2ccccc21,0.5%,0.7,-5,0,16%,-10%,3%
COc1ccc(C(=O)/C=C(\N)C(F)(F)F)c(O)c1,3.0%,1.1,-10,-12,-22%,-3%,1%
Nc1ccn(C2OC(COC(=O)C34CC5CC(CC(C5)C3)C4)C(O)C2O)c(=O)n1 (stereo not given),-1.5%,x,-8,x,-6%,7%,x
O=C(O)CCCNC(=O)/C(=C\c1ccc(Cl)cc1)NC(=O)c1ccc(Br)cc1,x,2.1,-4,-21,-15%,-6%,-7%
Cc1ccc(C(=O)CCC(=O)OCC(=O)N(CC(C)C)c2c(N)n(Cc3ccccc3)c(=O)[nH]c2=O)cc1,-1.3%,x,-22,1,20%,1%,x
C#CCOCCOCCOCCNc1nc(N2CCN(C(=O)CCCCCCCCCCNC(=O)[C@@H](CCC(=O)O)n3cc(CCCCCN)nn3)CC2)nc(N2CCN(C(=O)CCCCCCCCCCNC(=O)[C@H](CO)n3cc(CCCSC)nn3)CC2)n1,-2.9%,x,-12,-30,12%,0%,x
CCC(=O)n1nc(-c2ccccc2)nc1N,20%,2.4,-7,11,0%,8%,13%
c1ccc(Nc2nc(N3CCCC3)nc(N3CCCC3)n2)cc1,0.2%,0.5,-22,-8,-4%,-25%,2%
CC1CCN(C(=O)COC(=O)COc2ccccc2C#N)CC1,-1.5%,x,-3,12,-11%,-5%,x
CCCCC/C(=N\NC(=O)CCC(=O)NCc1ccccc1)c1ccccc1,1.7%,1.0,-21,0,-4%,-5%,3%
Cc1ccc(C)c(NS(=O)(=O)c2cc(C(=O)Nc3cccc(N(C)S(C)(=O)=O)c3)ccc2C)c1,-1.4%,6.2,19,8,-33%[inhibitor],u,1%
CC(C)COC(=O)N1C[C@H](O)C[C@H]1C(=O)Nc1ccc(Cl)cc1,-1.2%,-0.4,-7,-3,1%[15.4 µM],-3%,13%
O=C(C1=C(O)/C(=C/c2ccc(O)cc2)CCC1)C(F)(F)F,-0.3%,u,-11,-6,-10%,3%,-22%
CCOC(=O)c1c(NC(=O)COC(=O)CCCOc2ccc(OC)cc2)sc(C(=O)N(C)C)c1C,2.9%,x,3,x,-74%[inhibitor],-23%,x
COc1cc2c(cc1NC(=S)NC(=O)c1c(OC)cccc1OC)oc1ccccc12,9.0%,x,2,-6,16%,13%,-7%
C[n+]1ccccc1N1CCN(c2ccccc2Cl)CC1,-0.3%,0.3,-3,-4,-2%[15.4 µM],7%,-7%

# Limited to gsp ag, Sfp inh and ClpP mod, for three of the compounds above:
Molecule | gsp ag | Sfp inh | ClpP mod
CCCCC/C(=N\NC(=O)CCC(=O)NCc1ccccc1)c1ccccc1 | -4% | 3% | 1.7%
Cc1ccc(C)c(NS(=O)(=O)c2cc(C(=O)Nc3cccc(N(C)S(C)(=O)=O)c3)ccc2C)c1 | -33%[inhibitor] | 1% | -1.4%
CC(C)COC(=O)N1C[C@H](O)C[C@H]1C(=O)Nc1ccc(Cl)cc1 | 1%[15.4 µM] | 13% | -1.2%

# More compounds follow:
SMILES,ClpP mod,Menin MLL FP FL,D2 PAM,TRPV1 PAM,gsp ag,gsp antagonist,Sfp inh
O=C(NNC(=O)c1sccc1-n1cccc1)c1ccc(F)cc1,1.5%,-1.1,-9,15,-47%[inhibitor],-3%,0%
C[N+](C)(C)CCN(Cc1ccc(Cl)cc1)c1ccccn1,25µM*,1.3,-4,26,27%,3%,22%
C/C(=N\Nc1ccc(Cl)c(C(=O)O)c1)c1cccc2ccccc12,x,-0.3,-1,19,-34%[inhibitor],-2%,-10%
CS(=O)(=O)N1N=C(c2ccco2)CC1c1ccc(Cl)cc1Cl (stereo not given),-0.1%,7.3,-2,1,-36%[inhibitor],-10%,40µM*
COC(=O)C1=C(C)N(Cc2ccco2)C(=O)N[C@H]1c1ccccc1,x,0.6&0.5,x,4,x,x,-7%&-11%
Cc1ccc(CNC(=O)C(=O)NCC(c2ccco2)N2CCOCC2)cc1 (stereo not given),-3.9%,0.9,7,-2,6%,-17%,15%
CC(=O)c1ccc(NC(=O)CNCc2cccs2)cc1,3.5%,0.0,-7,-12,0%,3%,-25%
COc1cc2nc(C3CCC3)n(NC(=O)C3CCCC(OC)C3)c(=O)c2cc1OC (stereo not given),-1.1%,0.6,3,3,1%,-10%,9%
Cc1cccc(C(=O)O/N=C2\CCCc3ccccc32)c1,4.4%,5.7,4,-14,3%,-13%,-12%
O=C(NCc1ccco1)/C(=C\c1cccs1)NC(=O)c1ccsc1,3.8%,-2.2,-10,5,24%,1%,-5%
O=C(NCC1CCCO1)c1cn(Cc2ccccc2)nc1-c1ccccc1 (stereo not given),1.9%,x,-2,1,-25%,8%,x
N#Cc1c(-c2ccccc2)cc(-c2ccccc2)[nH]c1=O,4.3%,5.0,-5,-23,27%,1%,4%
COCCn1c(C)cc(C(=O)CSc2nc(C)nc3sc4c(c23)CCC4)c1C,-0.4%,x,-11,x,u,-2%,x
O=C(NCCCN1CCOCC1)C(=O)NCC1OCCN1S(=O)(=O)c1ccc(F)cc1 (stereo not given),0.9%,x,-13,-6,2%,10%,16%
CC(C)N1CCN(c2ccncc2S(=O)(=O)N2CCOCC2)CC1,1.0%,0.2,2,6,-5%,-3%,17%
Cc1c(C(=O)N2CCN(c3ncccn3)CC2)sc2nc3n(c(=O)c12)CCCC3,28µM*,4.0,0,0,-21%,6%,0%
Cc1c(C)n(C)c2ccc(C(=O)NCCCN3CCN(c4ccccc4F)CC3)cc12,-19%,5.1,-33,-2,-5%,-15%,-11%
COc1ccc(NC(=O)CCSc2cc(C)c3ccccc3n2)cc1,-2.1%,5.4,-15,-6,10%,2%,-21%
COc1ccc(C)cc1S(=O)(=O)N1CCCC(C(=O)NCC2CCCO2)C1 (stereo not given),-1.8%,6.1,-14,0,0%,-2%,-7%
CC(C)OC(=O)C1CC(C)(O)C(=O)C(C(=O)OC(C)C)C1c1ccc([N+](=O)[O-])cc1 (stereo not given),2.0%,1.5,-10,-21,-9%,-14%,17%
Cc1nc(S/C(=C/c2ccc(-c3ccc(C(=O)O)cc3)o2)C(=O)O)n[nH]1,-9.9%,u,-8,-2,17%,-12%,14µM*
Cc1cc(Cl)ccc1OCCCC(=O)N1CCN(C)CC1,-0.8%,1.2,-27,-27,-2%,7%,2%
CCCCN1C(=O)C(CC(=O)NCCc2ccccn2)CC(C(=O)N2CCOCC2)=C1C (stereo not given),-0.2%,x,2,x,-22%,x,x
COC(=O)CCSCC(=O)Nc1ccc(S(=O)(=O)N2CCOCC2)cc1OC,-0.7%,0.1,-1,4,u,-1%,1%
COc1cc(C2NC(=S)NC(c3ccccc3)=C2C(C)=O)cc(Br)c1OCC(N)=O (stereo not given),-0.2%,5.1,-1,13,1%,-4%,-5%
COc1ccc(/C=C/C(=O)N2CCC(c3ccccc3)C2)cc1 (stereo not given),-3.8%,1.9,-4,9,13%,3%,10%
Cc1ccc(S(=O)(=O)NCC(=O)N2CCN(c3ccccn3)CC2)cc1,-21%,-6.8,-3,2,-20%,-11%,6%
CCOC(=O)CNC1CC(=O)N(c2cccc(Cl)c2)C1=O (stereo not given),0.4%,0.0,7,8,-44%[inhibitor],6%,-30%
CSc1cccc(NC(=O)COc2ccccc2C)c1,x,-1.9,-4,-10,-7%[15.4 µM],-3%,5%
CCc1ccc(S(=O)(=O)Nc2nccs2)cc1,0.2%,9.0,-7,-8,-18%[15.4 µM],0%,3%
Cc1cccc(NC(=O)Nc2ccc(Oc3c(F)c(F)c(F)c(F)c3F)cc2)c1,-1.0%,1.4,-13,-9,-42%[inhibitor],-4%,16%
CC1=C(C)CC(C(=O)NCc2c(F)cccc2Cl)C(C(=O)O)C1 (stereo not given),-0.1%,0.2,-5,-18,11%[15.4 µM],-28%,16%
Cc1csc(NC(=O)C(NS(=O)(=O)c2ccc(Br)s2)c2ccccc2)n1 (stereo not given),-0.4%,-4.3,0,17,-4%,5%,7%
CCC(C)c1ccccc1NS(=O)(=O)c1cnn(CC)c1 (stereo not given),-1.1%,-3.4,-10,4,-2%,-1%,21%
O=C(CCS(=O)(=O)c1ccc(Cl)cc1)NCCC1=CCCCC1,-1.9%,-3.3,2,-5,u,8%,10%
Cc1cc(C)cc(C(=O)NC(CC(N)=O)c2ccc(NCCN3CCCC3)c([N+](=O)[O-])c2)c1 (stereo not given),-0.4%,0.5,-18,9,x,7%,9%
O=S(=O)(NCC(c1cccnc1)N1CCN(c2ccc(F)cc2)CC1)c1ccc(F)cc1 (stereo not given),-1.2%,1.8,-11,11,-46%[inhibitor],-1%,20%
CN1C(=O)/C(=C\c2cccc(OCc3ccccc3)c2)SC1=S,0.7%,3.7,-1,-2,u,u,-1%
O=C(Cn1nc(Cl)nc1Cl)Nc1ccccc1,-2.0%,-1.4,2,-6,-33%,8%,7%
CC(=O)Nc1ccccc1OCC(=O)NCCc1ccc(Cl)cc1Cl,32µM*,4.2,-7,-1,-48%[inhibitor],2%,-22%
Cc1ccc(C(=O)Nc2ccc3c(c2)OCO3)cc1NC(=O)c1ccco1,-2.1%,-0.4,4,9,-3%,-7%,-9%
CC(CNC(=O)Cn1ccc(N)nc1=O)c1ccccc1 (stereo not given),0.9%,x,-3,2,-10%,13%,x
CCN(CC1CCCO1)C(=O)c1cc(COc2ccc(OC)cc2Cl)on1 (stereo not given),0.0%,-4.0,-5,-16,-17%,5%,5%
